RN4220 kill = S. aureus RN4220 growth inhibition; OD600, 16 h; inhibition, % (concentration not given with the values); 330,000 tested, 0.33% active; AID 1259311;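 active = z-score of -3 or lower and OD600 up to 0.18 on both plates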;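 note: plate controls were untreated cells for no effect and reference antibiotic for full effect; stock transfer was 100 nL into about 80 µL; one replicate is shown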
Autofluor counter = compound fluorescence in toxin protease inhibitor counterscreen | compound autofluorescence counterscreen, microsphere flow cytometry; hits give high values | 360,000 tested, 3.1% active | fluorescence intensity (no concentration beside the values);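 active = at least 3 SD above the mean of all compounds, about 16000 in these data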;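 note: 100 nL of 1 mM stock went into each well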
Mtb hypoxia inh = Mtb hypoxia fluorescent reporter inhibition. M. tuberculosis hypoxia-regulated fluorescent reporter, fluorescence. fluorescence inhibition, % (test concentration not listed). 300,000 tested, 0.1% active. AID 1159583;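 active = 35 to 45% if threefold the growth effect, above 45% if 1.5-fold the growth effect; inactive = the rest, general growth blockers included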;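 note: wells of about 50 µL received 100 nL stock; 0% = vehicle wells and 100% = reference inhibitor wells; whole bacteria with a GFP reporter of the hypoxia response; strong numbers were not always called active; many hits fall short of the cut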
PrP 5UTR inh = suppresses PrP 5' UTR mRNA reporter expression; cell-based PrP 5' UTR mRNA reporter, plate reader; inhibition, % (no concentration beside the values); 340,000 tested, 0.35% active; AID 488862;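 active = every replicate at 50% or more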;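 note: 0 = median of the neutral control wells; tested in H4 reporter cells; numbers are from one replicate; inactives centre near -14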
BJeLR lethal = BJeLR cell viability loss; BJeLR (HRASV12) viability, CellTiter-Glo ATP luminescence, 48 h; reference of the scale not given here; inhibition, % (concentration not given with the values); 300,000 tested, 0.17% active;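 active = replicate mean above 50%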;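 note: 50 nL library stock added to about 25 µL; numbers are from one replicate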
ugtP null kill = compounds lethal to S. aureus RN4220 ugtP deletion mutant. OD600 growth, 16 h; some inactives read as strong as hits. 330,000 tested, 0.54% active. growth inhibition, % (no concentration beside the values);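 active = z-score under -3 and OD600 up to 0.15 on both plates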;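 note: plate controls were untreated wells for no effect and antibiotic for full effect; wells of about 80 µL received 100 nL stock; the first replicate is given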
Mtb hypoxia inh growth = recorded beside Mtb hypoxia inh, whose call it bears; growth inhibition, %; measured here: M. tuberculosis growth (absorbance);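 0% = vehicle and 100% = reference antibiotic; read after six days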
Starred values were filed as active, the others as inactive; x = no result given.

SMILES	RN4220 kill	Autofluor counter	Mtb hypoxia inh	Mtb hypoxia inh growth	PrP 5UTR inh	BJeLR lethal	ugtP null kill
COc1ccccc1CNC(=O)C(CC(C)C)NC(=O)C1CCC(C)CC1 (stereo not drawn)	2.1	4169	-5	2	-21	3	-1
O=C(Nc1cccc(C(=O)O)c1)/C(=C\c1ccc(F)cc1)NC(=O)c1ccco1	1.1	3907	15	5	-28	0	2
O=C(Cn1cnc2ccccc21)Nc1ccc(F)c(F)c1	3.9	3272	-1	5	-10	4	-1
O=C(NC1CCCC1)C(c1ccncc1)N(CCCN1CCOCC1)C(=O)c1ccc(-c2ccccc2)[nH]1 (stereo not drawn)	4.1	4330	-2	-3	-16	1	9
Cc1cc(C(=O)OCC(=O)N2CCC(C)CC2)c2ccccc2n1	1.7	3414	17	12	-31	x	0
NC(=O)C1CC2(CC(c3cccc(NC(=O)CC(c4ccccc4)c4ccccc4)c3)=NO2)CN1C(=O)c1ccc(Cl)cc1 (stereo not drawn)	-9.3	x	7	4	x	x	11
CCN(CC)C(=O)CSc1nnc(-c2ccco2)o1	2.0	3266	-4	-3	-29	-5	7
Cc1cc(NC(=O)c2ccccc2-c2ccccc2C(=O)O)no1	x	1901	x	x	-13	9	x
CCOC(=O)c1c(C)n(CC)c2ccc(OC(=O)c3ccc([N+](=O)[O-])cc3)cc12	12	1997	0	-4	-21	14	3
Cc1ccc(C2(c3ccc(C)cc3)NC(=O)N(CC(N)=O)C2=O)cc1	5.4	6165	11	5	-11	-4	5
CN(C)C(=O)c1ccc(-c2cc(C(F)(F)F)n(C)n2)s1	2.6	4505	18	12	-8	-6	-3
Nc1nonc1-n1nnc(C(=O)NN=Cc2cccc(F)c2)c1-c1ccc2c(c1)OCO2	1.1	x	2	-8	x	x	2
O=C(NCc1ccc(C(=O)O)cc1)OCc1ccccc1	3.9	4963	7	3	-1	0	4
Cc1nonc1-c1ccc2c(c1)OCO2	6.6	3830	8	-14	1	-3	10
Nc1ncnc2c1nc(Sc1ccc(Cl)cc1)n2[C@@H]1O[C@@H]2COP(=O)(O)O[C@H]2[C@H]1O	x	5201	x	x	-124	0	x
Cc1[nH]n(C(N)=S)c(=O)c1N=Nc1cc(C(F)(F)F)ccc1Cl	1.1	3016	7	0	-10	0	14
Cc1cc(C(=O)N2CCN(c3ccc([N+](=O)[O-])cc3)CC2)co1	0.3	4612	8	3	-12	4	3
COc1ccc(C(=O)Nc2nc(-c3ccc(S(=O)(=O)N4CCOCC4)cc3)cs2)cc1	1.5	20371*	2	14	-19	6	-12
O=C(Nc1nccs1)C1(S(=O)(=O)c2ccc(Cl)cc2)CC1	1.9	7797	12	9	x	-1	6
COc1ccc(C(=O)Nc2cnc(NC(=O)c3cccs3)cc2C)cc1	-0.9	6193	-1	10	-61	8	-18
O=C(N/N=C/c1cccc2ccccc12)c1cc2ccccc2o1	x	4591	x	x	-10	23	x
O=S(=O)(c1ccc(Br)cc1)N1CCCN(Cc2ccccc2F)CC1	7.4	2178	7	1	-16	-1	-6
CCOC(=O)C(c1ccccc1)N1CCN(c2ccc(OC)cc2)CC1 (stereo not drawn)	2.8	4368	16	4	-37	-5	5
COC(=O)[C@@H](NC(=O)Nc1cccc(OC)c1)C(C)C	-2.2	21593*	-1	5	-12	5	3
O=C(NC1CCCCC1NC(=O)c1ccco1)c1ccco1 (stereo not drawn)	-12	2959	19	15	-17	-2	-7
O=C(Cn1ccc(C(F)(F)F)n1)Nc1ccc(S(=O)(=O)NCc2ccco2)cc1	1.5	3541	7	8	-14	-5	9
CCc1nnc(NC(=O)CN2CCOCC2)s1	2.2	7435	-2	4	-27	6	3
CCC(Oc1ccccc1C)C(=O)N1CCCN(C)CC1 (stereo not drawn)	2.7	5766	6	-12	-6	-17	3
COc1ccccc1NC(=O)c1ccc(NC(=O)COC(=O)C2CCCCC2)cc1	1.2	2196	14	13	-16	1	-1
O=C(N/C(=C\c1ccccc1)C(=O)N1CCOCC1)c1cccc(Br)c1	1.6	5788	8	10	1	8	6

For convenience, some entries already given.
SMILES	RN4220 kill	Autofluor counter	Mtb hypoxia inh	Mtb hypoxia inh growth	PrP 5UTR inh	BJeLR lethal	ugtP null kill
Nc1nonc1-n1nnc(C(=O)NN=Cc2cccc(F)c2)c1-c1ccc2c(c1)OCO2	1.1	x	2	-8	x	x	2
O=C(NCc1ccc(C(=O)O)cc1)OCc1ccccc1	3.9	4963	7	3	-1	0	4
Cc1nonc1-c1ccc2c(c1)OCO2	6.6	3830	8	-14	1	-3	10
Nc1ncnc2c1nc(Sc1ccc(Cl)cc1)n2[C@@H]1O[C@@H]2COP(=O)(O)O[C@H]2[C@H]1O	x	5201	x	x	-124	0	x
Cc1[nH]n(C(N)=S)c(=O)c1N=Nc1cc(C(F)(F)F)ccc1Cl	1.1	3016	7	0	-10	0	14
Cc1cc(C(=O)N2CCN(c3ccc([N+](=O)[O-])cc3)CC2)co1	0.3	4612	8	3	-12	4	3
COc1ccc(C(=O)Nc2nc(-c3ccc(S(=O)(=O)N4CCOCC4)cc3)cs2)cc1	1.5	20371*	2	14	-19	6	-12
O=C(Nc1nccs1)C1(S(=O)(=O)c2ccc(Cl)cc2)CC1	1.9	7797	12	9	x	-1	6
COc1ccc(C(=O)Nc2cnc(NC(=O)c3cccs3)cc2C)cc1	-0.9	6193	-1	10	-61	8	-18
O=C(N/N=C/c1cccc2ccccc12)c1cc2ccccc2o1	x	4591	x	x	-10	23	x
O=S(=O)(c1ccc(Br)cc1)N1CCCN(Cc2ccccc2F)CC1	7.4	2178	7	1	-16	-1	-6
CCOC(=O)C(c1ccccc1)N1CCN(c2ccc(OC)cc2)CC1 (stereo not drawn)	2.8	4368	16	4	-37	-5	5
COC(=O)[C@@H](NC(=O)Nc1cccc(OC)c1)C(C)C	-2.2	21593*	-1	5	-12	5	3
O=C(NC1CCCCC1NC(=O)c1ccco1)c1ccco1 (stereo not drawn)	-12	2959	19	15	-17	-2	-7
O=C(Cn1ccc(C(F)(F)F)n1)Nc1ccc(S(=O)(=O)NCc2ccco2)cc1	1.5	3541	7	8	-14	-5	9
CCc1nnc(NC(=O)CN2CCOCC2)s1	2.2	7435	-2	4	-27	6	3

(list continues)
SMILES	RN4220 kill	Autofluor counter	Mtb hypoxia inh	Mtb hypoxia inh growth	PrP 5UTR inh	BJeLR lethal	ugtP null kill
CC(=O)c1cccc(NC(=O)c2cnccn2)c1	3.6	3919	11	6	-30	-3	7
CCCCn1c(N)c(N(CCOC)C(=O)c2ccc(-c3ccccc3)cc2)c(=O)[nH]c1=O	-2.1	6960	7	1	-17	-2	4
Cc1cc(=O)[nH]c(SCC(=O)N2CCCCCC2)n1	-6.4	3206	12	14	-13	-3	-1
CS(=O)(=O)c1ccc2c(c1)SC1=NC(=O)/C(=C/c3ccco3)C(=N)N12	4.4	19978*	0	3	-37	-2	-6
